RXFP1 antag = RXFP1 (human) relaxin receptor antagonism. actives 0.59% (n = 350,000). HEK293-RXFP1, relaxin-stimulated cAMP HTRF, 30 min; active compounds read low. AID 1259400. activity change, negative = inhibition, % at 57.5 µM. Q9HBX9;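 active = activity change of -60% or lower, but not beyond a set lower limit; inconclusive = change between -60% and -40%, or beyond the set limit; inactive = change above -40%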
Anesthetic bind = candidate novel general anesthetic via apoferritin binding. P02791. apoferritin/1-aminoanthracene competitive binding, fluorescence. Potency, µM (series often up to 77.5 µM), inactives show top-dose activity change, negative = displacement, most hits filed as inhibitors. actives 0.074% (n = 350,000). AID 485281; also: potency is read from the fitted curve at half-maximal effect; nearly all actives have a fitted effect of over 20% in size
Target sequence (P02791 2-175 limits assumed): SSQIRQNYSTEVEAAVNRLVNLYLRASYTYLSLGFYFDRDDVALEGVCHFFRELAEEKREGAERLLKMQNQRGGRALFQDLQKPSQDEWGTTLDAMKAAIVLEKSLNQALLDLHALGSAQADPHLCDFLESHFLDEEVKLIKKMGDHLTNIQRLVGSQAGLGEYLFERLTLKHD
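10 uM apoferritin + 50% sat. 1-AMA, PBS; cpd 10 min RT; Ex380/Em535 endpoint; normalized to free probe vs complex; 4-param Hill fit; propofol titration as pos. ctrl.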
PGK inhibitor = inhibitors of T. brucei phosphoglycerate kinase; P07378; PGK/GAPDH coupled, Kinase-Glo luminescence, 60 min; Potency, µM (doses to about 57.5 µM), for the others: at the highest dose activity change, negative = inhibition, most hits filed as inhibitors; actives 0.043% (n = 380,000); AID 602233; also: potency is read from the fitted curve at half-maximal effect; nearly all actives have a fitted effect of over 60% in size
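Luminescent ATP detection (Kinase-Glo Plus) follows a 60-minute room-temperature incubation, with wells lacking PGK as controls. Buffer: 100 mM TEA (pH 7.6), 5 mM MgCl2, 0.01% Tween-20. Coupling enzyme GAPDH (100 nM final) supplies unstable 1,3-BPG in-well.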
Active calls of the source: *; i = inactive; ? = inconclusive; nt = not tested or not shown. Unless noted, calls follow the shape of the dose curve; as a rule, active = well fitted inhibition curve with a large enough effect; inconclusive = small, poorly fitted or top-dose-only effect; inactive = no such curve, though single readings can be large or run the other way. % is scaled to controls: 0 for no effect and ±100 for the full control effect. These rows are one share of the data; the hit share may differ from the screen's.

Start of the listing, in advance, four compounds:
SMILES,RXFP1 antag,Anesthetic bind,PGK inhibitor
O=C(c1ccccc1)c1c2c(cc3sc4ccccc4[n+]13)-c1cccc3cccc-2c13,-16,0%,6%
COc1ccccc1/C=C/C=c1\sc2nc(=O)c(Cc3ccccc3)nn2c1=O,-3,-14%,-15%
O=C(Cc1cccs1)Nc1ccc(S(=O)(=O)N2CCCCC2)cc1,-9,-26%,-18%
CN1C2CCC1CC(OC(=O)C(CO)c1ccccc1)C2 (stereo not given),nt,-4%,i

Results, repeating the preview:
SMILES,RXFP1 antag,Anesthetic bind,PGK inhibitor
O=C(c1ccccc1)c1c2c(cc3sc4ccccc4[n+]13)-c1cccc3cccc-2c13,-16,0%,6%
COc1ccccc1/C=C/C=c1\sc2nc(=O)c(Cc3ccccc3)nn2c1=O,-3,-14%,-15%
O=C(Cc1cccs1)Nc1ccc(S(=O)(=O)N2CCCCC2)cc1,-9,-26%,-18%
CN1C2CCC1CC(OC(=O)C(CO)c1ccccc1)C2 (stereo not given),nt,-4%,i
COc1cc(C2C3=C(Nc4nc(N)[nH]c(=O)c42)c2ccccc2C3=O)ccc1O (stereo not given),-20,-8%,-10%
Cc1nnc(NC(=O)CSc2ccc(-c3ccco3)nn2)s1,-1,-7%,-16%
O=C(COC(=O)c1ccccc1Oc1ccccc1)NCc1ccco1,5,?,?
Cc1ccc(SCC(=O)NC(=O)NCc2ccco2)c(C)c1,-3,?,-20%
O=C(COC(=O)/C=C/c1ccco1)Nc1ccccc1,-8,-6%,-16%
O=C(/C=C/c1ccco1)Nc1ccccc1C(=O)O,?,0%,?
COc1ccc(CC(C)NCC(O)c2ccc(O)c(NC=O)c2)cc1 (stereo not given),18,nt,2%
CC(=O)c1c(C)oc(C)c1CSCc1ccc(C(=O)O)o1,-5,-2%,?
Cc1ccc(NC(=O)CN2C(=O)S/C(=C\c3cccn3-c3cccc(C(=O)O)c3)C2=O)cc1C,-16,-6%,?
CN(C)S(=O)(=O)c1ccc(Cl)c(NC(=O)COC(=O)/C=C/c2ccco2)c1,-6,-5%,-16%
Cn1c(SCC(=O)NC(=O)NCc2ccco2)nnc1-c1ccccc1,-6,-24%,-22%

Copied from the list:
Under RXFP1 antag, O=C(Cc1cccs1)Nc1ccc(S(=O)(=O)N2CCCCC2)cc1 is listed with -9
Under RXFP1 antag, COc1cc(C2C3=C(Nc4nc(N)[nH]c(=O)c42)c2ccccc2C3=O)ccc1O (stereo not given) is listed with -20
Under Anesthetic bind, CC(=O)c1c(C)oc(C)c1CSCc1ccc(C(=O)O)o1 is listed with -2%
Under Anesthetic bind, CN1C2CCC1CC(OC(=O)C(CO)c1ccccc1)C2 (stereo not given) is listed with -4%
Under Anesthetic bind, Cc1nnc(NC(=O)CSc2ccc(-c3ccco3)nn2)s1 is listed with -7%

Entries of single compounds as entered above. Values in the order: RXFP1 antag | Anesthetic bind | PGK inhibitor
Record of O=C(c1ccccc1)c1c2c(cc3sc4ccccc4[n+]13)-c1cccc3cccc-2c13 → -16 | 0% | 6%
Record of COc1ccc(CC(C)NCC(O)c2ccc(O)c(NC=O)c2)cc1 (stereo not given) → 18 | nt | 2%

Assay outcomes (PubChem BioAssay)
